RecA intein inh = inhibitors of M. tuberculosis RecA intein splicing. P9WHJ3. cell-free RecA intein splicing, fluorescence. inhibition, %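 (about 9 µM by stock and volumes)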. 0.75% of 290,000 active. AID 2221; in the data active = inhibition above about 30%; inconclusive = no clear call, values can overlap the other calls;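 also: 0% = vehicle wells and 100% = reference inhibitor control wells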
Target sequence (P9WHJ3 whole entry, looked up): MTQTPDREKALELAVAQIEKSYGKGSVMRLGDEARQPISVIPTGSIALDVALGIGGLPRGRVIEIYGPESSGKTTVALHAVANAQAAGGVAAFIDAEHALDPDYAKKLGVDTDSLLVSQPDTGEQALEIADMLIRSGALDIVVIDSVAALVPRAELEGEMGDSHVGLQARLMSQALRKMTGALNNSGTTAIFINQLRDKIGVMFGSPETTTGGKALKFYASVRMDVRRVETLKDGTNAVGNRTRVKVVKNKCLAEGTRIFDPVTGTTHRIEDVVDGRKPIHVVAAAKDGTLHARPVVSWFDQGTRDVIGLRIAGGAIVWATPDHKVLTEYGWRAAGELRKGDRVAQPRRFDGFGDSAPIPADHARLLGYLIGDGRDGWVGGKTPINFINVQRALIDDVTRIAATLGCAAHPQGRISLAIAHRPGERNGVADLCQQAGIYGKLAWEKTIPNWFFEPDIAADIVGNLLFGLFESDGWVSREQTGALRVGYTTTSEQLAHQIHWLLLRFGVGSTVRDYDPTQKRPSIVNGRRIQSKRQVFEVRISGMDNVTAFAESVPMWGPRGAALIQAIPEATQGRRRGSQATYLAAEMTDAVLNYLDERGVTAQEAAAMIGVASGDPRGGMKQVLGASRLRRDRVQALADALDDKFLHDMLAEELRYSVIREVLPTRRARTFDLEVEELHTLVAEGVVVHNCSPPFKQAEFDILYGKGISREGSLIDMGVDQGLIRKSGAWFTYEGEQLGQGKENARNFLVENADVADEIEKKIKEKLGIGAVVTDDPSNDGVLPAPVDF
Mtb betalactam = beta-lactam sensitization of Mtb H37Rv; inhibition, % at 25 µM; M. tuberculosis H37Rv growth with meropenem, percent inhibition; hits of this screen are not shown here; AID 434955; 0.27% of 330,000 active;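 active = about 74% or more and at least 40 points above the plate without the antibiotic, then above 30% in a dose series; inconclusive = first-round hits that could not be retested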;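 also: growth measured after seven days incubation then overnight dye step; 0% = bacteria only wells and 100% = bacteria with antibiotic; twin plates without the antibiotic show which effects depend on it; some results filed as inactive read as strong as hits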
YopH PTP inh = blocks Yersinia enterocolitica YopH tyrosine phosphatase | inhibition, %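 (about 10 µM by stock and volumes)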 | AID 898 | 0.16% of 140,000 active | fluorescence Ex485/Em525;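 active = inhibition of 50% or more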;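 also: controls were vehicle for no effect and minimum signal wells for full effect; inactives centre near -20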
Arbovirus inh = blocks arbovirus infection; arbovirus infection cell-based antiviral screen; AID 1251; inhibition, % at 10 µM; 0.37% of 200,000 active;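 active = inhibition from about 30%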;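 also: bluetongue infection of BSR cells; cell survival read as ATP light after 72 h; 0% = infected wells without compound and 100% = uninfected wells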
Mtb H37Rv = M. tuberculosis H37Rv growth inhibitors, H37Rv strain (AID 1626); M. tuberculosis H37Rv growth inhibition; higher % means a stronger effect; inhibition, % at 10 µM, or IC50 in µM where a hit was titrated; 0.95% of 220,000 active;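 active = confirmed in a dose series; inconclusive = inhibition above 80% but not taken into the dose series; inactive = below 80% or under 30% at every dose of the series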;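 also: bacteria incubated seven days before Alamar blue readout; 0% = bacteria only wells and 100% = bacteria with antibiotic wells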
Arbovirus inh repeat = further read-out of Arbovirus inh, marked with its call; inhibition, %; measured here: 10K subset replicate screen; many hits read low in the repeat;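 first of two repeat runs on a subset; 0% = infected and 100% = uninfected wells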
The depositor's hits bear a star; ? = inconclusive; . = no result given; & = joins results of further samples.

SMILES	RecA intein inh	Mtb betalactam	YopH PTP inh	Arbovirus inh	Mtb H37Rv	others
CCCCn1c(CCC(=O)O)ccc1-c1cccs1	-9.7	75	-15	5	4%	Arbovirus inh repeat=5
CN(CC(=O)O)Cc1nc2ccccc2[nH]1	-4.0	-4	-3	-2	-14%
Nc1c(Cl)ncnc1N/N=C/c1cccnc1	-3.6	-2	.	.	4%
CC1(c2ccccc2)NC(=O)N(CC(=O)Nc2ccc([N+](=O)[O-])cc2)C1=O (stereo not given)	-1.2	-6	.	0	-1%
CCN(Cc1cnn(C)c1)C(=O)c1cc(COc2ccc3c(c2)CCCC3)on1	7.0	7	.	.	.
CN1CCC2(CC1)N=C(c1ccc(F)cc1)C(=S)N2C(=O)c1ccccc1	-1.0	-2	-21	12	-2%
O=C(C1CC1)N1CCc2cc(Br)cc(S(=O)(=O)NC3CCCCC3)c21	-1.3	?	-38	4	-6%	Arbovirus inh repeat=6
C=Cc1c(C)c2cc3[nH]c(cc4nc(cc5nc(cc1[nH]2)C(C)=C5CCC(=O)O)C(CCC(=O)O)=C4C)c(C)c3C=C	22	-1&6	.	.	0%
COC(=O)Nc1c(-c2ccccc2)nc2ccc(C)cn12	2.3	-7	-13	5	1%
Cc1cccc(-n2ccnc2SCC(=O)Nc2nnc(C)s2)c1	-0.4	-1	-29	-4	-6%	Arbovirus inh repeat=-4
COc1ccccc1OCCNC(=O)Nc1cc(F)c(F)cc1Cl	-0.8	0	.	.	-9%
COC(=O)Oc1ccc(/C=N/NC(=O)CN(c2ccccc2Br)S(C)(=O)=O)cc1OC	-1.7	5	.	.	.
Cc1cc(CN2CCCC(C(=O)Nc3cccc(-n4cccn4)c3)C2)cc(C)c1O (stereo not given)	1.3	9	.	.	.
C=CCN1CC(c2nc3ccccc3n2Cc2cccc3ccccc23)CC1=O (stereo not given)	.	56	12	-13	7%
O=C(CCNS(=O)(=O)c1ccc(Br)s1)N1CCN(c2ccccc2)CC1	.	.	-31	7	-1%
CCCCN1C(=O)C2C(C(=O)Nc3cccc(OC)c3)C3C=CC2(O3)C1C(=O)NC1CCCCC1C (stereo not given)	-0.3	-7	-13	5	-8%
CCOC(=O)CCCCCN1C(=O)c2cccc3cccc(c23)C1=O	3.2	77	.	.	.
C=CCn1c(SCC(=O)Nc2c(C)n(C)n(-c3ccccc3)c2=O)nc2sc(C)c(C)c2c1=O	-1.3	-7	-13	-5	4%
Cc1ccc(CN2CC(C(=O)N3CCN(c4ccccc4O)CC3)CC2=O)cc1 (stereo not given)	-1.8	-6	.	.	.
CCOCCCNCc1ccc(OC)c(OC)c1	-0.1	-9	-26	1	-13%
Cc1ccc(/C=C/C(=O)O)cc1S(=O)(=O)N1CCCCC1	0.1	-5	.	.	-12%
O=C(c1ccc(=O)[nH]c1)N1CCN(S(=O)(=O)c2ccc(Cl)cc2)CC1	-0.8	-2	.	.	.
O=C(Nc1cccc(S(=O)(=O)NC2=NCCCCC2)c1)c1cc(-c2ccncc2)nc2ccccc12	5.7	6	.	12	5%
O=C(CN1CCN(C(=O)c2ccco2)CC1)Nc1c2c(nc3c1CCC3)CCCC2	.	.	-24	-2	4%
CCOC(=O)c1ccc(NC(=O)COc2cc3oc(=O)c(CC(C)O)c(C)c3cc2Cl)cc1 (stereo not given)	-1.3	-8	.	.	-3%
CN(CCc1ccccn1)C(=O)c1nn2c(C(F)(F)F)cc(-c3ccco3)nc2c1Cl	-4.1	-2	18	-8	-2%
Cc1ccc(C)c(OCc2nc3ccc(S(=O)(=O)Nc4c(C)n(C)n(-c5ccccc5)c4=O)cc3[nH]2)c1	1.6	-3	.	1	-5%
COc1ccc(CCNC(=O)CCCn2nc(C)c([N+](=O)[O-])c2C)cc1OC	3.6	6	.	1	-2%
CCN(CC)CCNC(=O)CCCCCn1c(=O)[nH]c2cc(C(=O)OC)ccc2c1=O	-1.0	10	3	5	-4%
O=[N+]([O-])c1ccc(-c2cc(-c3ccc(Cl)cc3)n[nH]2)cc1	3.0	2	-26	-10	.
COCCCN=C1NN=C(c2cc(C)n(-c3ccccc3F)c2C)CS1	-1.6	98	.	-12	5.2µM*
COc1ccc(NC(=O)CCCn2c(=O)[nH]c3ccccc3c2=O)cc1	-0.7	-8	-12	12	-10%
S=c1[nH]nc(-c2ccc(Br)cc2)n1-c1ccc2c(c1)OCCO2	1.2	2	.	.	7%
COc1ccc(C(=O)NC(=S)N2CCCc3ccccc32)cc1OC	5.1	-1	.	7	53%
CCCCS(=O)(=O)Nc1ccc(C(=O)NCC2CCCO2)cc1 (stereo not given)	1.4	-3	-18	9	-4%
Cc1onc(-c2ccccc2Cl)c1C(=O)NCc1cccnc1	-0.6	-2	-33	-2	4%
COCCn1c(SCC(=O)Nc2ccc(OC)cc2OC)nc2ccccc2c1=O	5.7	4	.	.	.
COc1ccccc1C1C(C(N)=O)=C(C)Nc2nc(-c3ccc(Cl)cc3)nn21 (stereo not given)	-0.1	-1	-36	1	-1%	Arbovirus inh repeat=-4
O=C(c1ccncc1)N1C2C=CC(C2)C1(C(F)(F)F)C(F)(F)F (stereo not given)	.	.	-31	-2	-12%
O=C(O)c1ccc(CP(=O)(c2ccccc2)c2ccccc2)cc1	-0.1	3	.	.	.
Cc1c(C2=CCN(S(=O)(=O)c3ccc(Cl)cc3)CC2)c2ccccc2n1C	-2.9	0	-17	14	1%
C[N+]1(CCOc2ccc([N+](=O)[O-])cc2)CCOCC1	-2.2	3	-27	14	1%
Cc1cccc(C(=O)Nc2nnc(-c3ccc(C(C)(C)C)cc3)s2)c1	0.8	-1	-35	7	6%
COc1ccc(N(CC(O)Cn2cnc3ccccc32)S(=O)(=O)c2ccc(C)cc2)cc1 (stereo not given)	-0.1	74	-11	-10	26%
CCOC(=O)Cc1c(C)nc2cc(C)nn2c1C	1.3	-6	-34	7	-5%
C=CCOC(=O)C1C(=O)CC(C)(O)C(C(=O)OCC=C)C1c1ccc(OC)cc1 (stereo not given)	1.0	2	-53	1	11%
Cc1cc(N2CCN(C(=O)c3ccco3)CC2)nc(-c2ccccc2)n1	-0.8	-16	.	8	-1%
Cc1cc(S(=O)(=O)NCc2cccnc2)ccc1-n1cnnn1	-0.4	-1	-32	5	-6%
Cc1cc(=O)oc2c(C)c(OC(C)C(=O)NCc3ccccn3)ccc12 (stereo not given)	-1.0	3	.	.	.
O=C1Nc2c(c(=O)[nH]c(=O)n2-c2ccccc2)C1(Nc1ncccn1)C(F)(F)F (stereo not given)	-14	5	-26	16	3%

A draw from above in order of length of the SMILES, low to high.
SMILES	RecA intein inh	Mtb betalactam	YopH PTP inh	Arbovirus inh	Mtb H37Rv	others
Nc1c(Cl)ncnc1N/N=C/c1cccnc1	-3.6	-2	.	.	4%
CN(CC(=O)O)Cc1nc2ccccc2[nH]1	-4.0	-4	-3	-2	-14%
CCOC(=O)Cc1c(C)nc2cc(C)nn2c1C	1.3	-6	-34	7	-5%
COC(=O)Nc1c(-c2ccccc2)nc2ccc(C)cn12	2.3	-7	-13	5	1%
COc1ccccc1OCCNC(=O)Nc1cc(F)c(F)cc1Cl	-0.8	0	.	.	-9%
Cc1cc(S(=O)(=O)NCc2cccnc2)ccc1-n1cnnn1	-0.4	-1	-32	5	-6%
COCCCN=C1NN=C(c2cc(C)n(-c3ccccc3F)c2C)CS1	-1.6	98	.	-12	5.2µM*
C=CCN1CC(c2nc3ccccc3n2Cc2cccc3ccccc23)CC1=O (stereo not given)	.	56	12	-13	7%
COc1ccc(NC(=O)CCCn2c(=O)[nH]c3ccccc3c2=O)cc1	-0.7	-8	-12	12	-10%
O=C(c1ccncc1)N1C2C=CC(C2)C1(C(F)(F)F)C(F)(F)F (stereo not given)	.	.	-31	-2	-12%
O=C(CCNS(=O)(=O)c1ccc(Br)s1)N1CCN(c2ccccc2)CC1	.	.	-31	7	-1%
Cc1ccc(CN2CC(C(=O)N3CCN(c4ccccc4O)CC3)CC2=O)cc1 (stereo not given)	-1.8	-6	.	.	.
CN1CCC2(CC1)N=C(c1ccc(F)cc1)C(=S)N2C(=O)c1ccccc1	-1.0	-2	-21	12	-2%
COc1ccccc1C1C(C(N)=O)=C(C)Nc2nc(-c3ccc(Cl)cc3)nn21 (stereo not given)	-0.1	-1	-36	1	-1%	Arbovirus inh repeat=-4
O=C(c1ccc(=O)[nH]c1)N1CCN(S(=O)(=O)c2ccc(Cl)cc2)CC1	-0.8	-2	.	.	.
CCN(CC)CCNC(=O)CCCCCn1c(=O)[nH]c2cc(C(=O)OC)ccc2c1=O	-1.0	10	3	5	-4%
CN(CCc1ccccn1)C(=O)c1nn2c(C(F)(F)F)cc(-c3ccco3)nc2c1Cl	-4.1	-2	18	-8	-2%
O=C(Nc1cccc(S(=O)(=O)NC2=NCCCCC2)c1)c1cc(-c2ccncc2)nc2ccccc12	5.7	6	.	12	5%
CCCCN1C(=O)C2C(C(=O)Nc3cccc(OC)c3)C3C=CC2(O3)C1C(=O)NC1CCCCC1C (stereo not given)	-0.3	-7	-13	5	-8%
Cc1ccc(C)c(OCc2nc3ccc(S(=O)(=O)Nc4c(C)n(C)n(-c5ccccc5)c4=O)cc3[nH]2)c1	1.6	-3	.	1	-5%

Continued:
SMILES	RecA intein inh	Mtb betalactam	YopH PTP inh	Arbovirus inh	Mtb H37Rv	others
COc1cccc(-c2ccc(C#N)c(SCC(=O)NCCc3cccc(Cl)c3)n2)c1	.	4	-8	-5	-11%
Nc1ccccc1S(=O)(=O)NC1=NCCCCC1	30*	4	-14	12	-2%
O=C(O)c1ccc(NS(=O)(=O)c2ccc3c(c2)C(=O)c2ccccc2C3=O)cc1	.	-3	.	-14	-8%
CC(C)=CC(=O)Nc1nnc(C(C)C)s1	-0.9	-2	-6	9	-8%
CC(=O)Nc1cccc(NC(=O)C2CCN(C(=O)c3ccco3)CC2)c1	3.1	-5	.	.	.
O=C1NC(c2ccccc2)=NC1(Nc1ccccn1)C(F)(F)F (stereo not given)	0.4	8	-16	-13	0%
CCC(=O)NC(Nc1nc(C)cs1)(C(=O)OC)C(F)(F)F (stereo not given)	-0.8	-3	-14	2	-5%
CCN(CC#CCC(O)(c1ccccc1)c1ccccc1)C(C)C	-8.7	3	-26	2	1%
Cc1c(-c2ccco2)[n+](=O)c2c(n1[O-])CCCCC2	1.5	-12	-23	5	-9%	Arbovirus inh repeat=-1
O=S(=O)(Nc1ncccn1)c1ccc(NC(=S)N2CCN(c3cccc(C(F)(F)F)c3)CC2)cc1	3.6	-11	.	.	.

An excerpt from above in order of formula weight, descending.
SMILES	RecA intein inh	Mtb betalactam	YopH PTP inh	Arbovirus inh	Mtb H37Rv	others
COc1cccc(-c2ccc(C#N)c(SCC(=O)NCCc3cccc(Cl)c3)n2)c1	.	4	-8	-5	-11%
O=C(O)c1ccc(NS(=O)(=O)c2ccc3c(c2)C(=O)c2ccccc2C3=O)cc1	.	-3	.	-14	-8%
CC(=O)Nc1cccc(NC(=O)C2CCN(C(=O)c3ccco3)CC2)c1	3.1	-5	.	.	.

More compounds.
SMILES	RecA intein inh	Mtb betalactam	YopH PTP inh	Arbovirus inh	Mtb H37Rv	others
COc1ccc(-n2c(C)nc3cc(C(=O)N4CCC5(CC4)OCCO5)ccc32)cc1	-1.5	-2	-47	-11	0%
CCOC(=O)NC(=O)COC(=O)Cc1cc(OC)c(OC)c(OC)c1	.	-6	-11	17	-6%
C1CCN(c2nc3nonc3nc2N2CCCCC2)CC1	-2.2	-5	-12	7	4%
CN1CCN(C(=S)NC(=O)/C=C/c2cccc3ccccc23)CC1	-1.2	7	1	7	-9%
Cc1ccc(OC(C)C(=O)Nc2ccccc2C(=O)NCc2cccnc2)cc1C (stereo not given)	1.7	-3	.	.	.
Cc1ccccc1NC(=O)CN1C(=O)CSc2ccccc21	1.0	4	.	.	.
CCOC(=O)C1C(=O)OC(C)(C)C1C(C)C(=O)c1ccc(C)cc1C (stereo not given)	-3.8	8	.	2	10%
Cc1cc(C)cc(C(=O)N(NC(=O)Nc2ccc(Cl)cc2)C(C)(C)C)c1	.	-3	-35	5	3%
COc1ccc(S(=O)(=O)NCc2ccc3c(c2)OCO3)cc1C	-0.2	-1	-28	1	-6%
Cc1cc(=O)oc2c(C)c(OCC(=O)N3CCN(c4ccc(F)cc4)CC3)ccc12	1.7	-7	.	.	.
Cc1cc(N(CN2CCCC2=O)C(=O)c2ccc(F)cc2)no1	1.1	?	-11	2	-2%
COc1cc(OC)cc(C(=O)N2CCN(C(=O)c3ccc(-c4ccccc4)cc3)CC2)c1	-0.8	58	.	-6	-3%
CCOC(=O)C1CCN(C(c2cccnc2)c2c(NC(=O)c3ccco3)sc(C)c2C)CC1 (stereo not given)	-4.8	16	-31	-29	.

Screening data: PubChem BioAssay, several laboratories

Some of the compounds tested; rates above refer to the full screens.
